NS1 inh: qHTS Assay for Inhibitors of Influenza NS1 Protein Function. 270,000 tested, 0.4% active. S. cerevisiae slowed by influenza A NS1, growth recovery by OD600. Potency, µM (highest dose often 46.1 µM), inactives show top-dose activity, positive = more growth; further: actives are rising curves; nearly all actives have a fitted effect of over 50% in size
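Recovery from NS1-induced slow growth read by OD600 in budding yeast switched to galactose assay medium (pH 6.0, -URA) at 1:100 dilution. Compound 23 nl per well; the matching strain lacking NS1 serves as control.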
2A StopGo: High Throughput Screening for Foot and Mouth Disease Virus Antivirals | human cells with a luciferase reporter of 2A StopGo recoding; control for the full effect not named in the record | Potency, µM (series often up to 57.9 µM), without a hit: top-dose signal change, negative = less light | 410,000 tested, 1.2% active | AID 1159524, 2015; active = well fitted falling curve with a large enough effect; inconclusive = small, poorly fitted or top-dose-only effect; inactive = no such curve, though single readings can be large or run the other way; tested in HEK293T cells; further: on the % scale 0 is the no-effect control and ±100 the full control effect; nearly all actives have a fitted effect of over 45% in size; luciferase light after 4 h
Cruzain inh Det: qHTS Assay for Promiscuous and Specific Inhibitors of Cruzain (with detergent) | Cruzipain (Trypanosoma cruzi), P25779 | purified cruzain, Z-FR-AMC fluorescence, 0.01% Triton | Potency, µM, inactives show max response, negative = inhibition, usual class: inhibitors | 200,000 tested, 0.43% active; active means well fitted curve in the direction sought with a large enough effect; inconclusive means small, poorly fitted or top-dose-only effect, or another doubt; inactive means no such curve, though single readings can be large; an effect the other way counts as inactive or inconclusive;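 further: plate controls were neutral wells for no effect and buffer without enzyme for full effect; nearly all actives have a fitted effect of over 40% in size; top concentration of the series not given in the record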
Target sequence (P25779 123-467 limits assumed): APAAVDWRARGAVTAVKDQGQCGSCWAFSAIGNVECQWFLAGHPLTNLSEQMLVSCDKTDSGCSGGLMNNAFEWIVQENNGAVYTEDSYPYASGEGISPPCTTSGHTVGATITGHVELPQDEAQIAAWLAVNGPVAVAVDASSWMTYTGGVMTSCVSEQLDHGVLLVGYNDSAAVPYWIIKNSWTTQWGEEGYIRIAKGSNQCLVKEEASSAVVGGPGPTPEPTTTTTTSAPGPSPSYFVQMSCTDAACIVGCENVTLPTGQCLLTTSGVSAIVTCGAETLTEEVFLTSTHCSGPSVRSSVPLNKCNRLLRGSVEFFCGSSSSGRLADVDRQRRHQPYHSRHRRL
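Z-FR-AMC hydrolysis (2 uM substrate) by cruzain (1.5 nM) monitored kinetically at ex 360/em 450 nm after 15 min room-temperature compound exposure; 0.01% Triton X-100, pH 5.5, 5 mM DTT.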
RE007 growth inh: qHTS Assay for Inhibitors of the HIV-1 protein Vpr; 360,000 tested, 0.21% active; S. pombe RE007 Vpr strain, BacTiter-Glo ATP luminescence, 24 h; control for the full effect not named in the record; Potency, µM (doses to about 92.2 µM), without a hit: at the highest dose activity change, negative = less growth; active = well fitted falling curve with a large enough effect; inconclusive = small, poorly fitted or top-dose-only effect; inactive = no such curve, though single readings can be large or run the other way;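 further: on the % scale 0 is the no-effect control and ±100 the full control effect; nearly all actives have a fitted effect of over 50% in size; the assay follows cell death caused by Vpr and the record does not say whether a fall means rescue or toxicity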
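Fission yeast RE007 carrying one integrated HIV-1 vpr copy, seeded at OD 0.01 in PMG+AL medium with 23 nL pinned compound. Grown 24 h at 30 degrees; viability read by BacTiter-Glo luminescence after 5 min.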
MARV entry inh: qHTS for inhibitors of binding or entry into cells for Marburg Virus; Marburg virus pseudotyped entry inhibition, cell reporter; control for the full effect not named in the record; about a third of the inactives were read at about 46 µM; Potency, µM (series often up to 37.8 µM), for the others: at the highest dose activity change, negative = inhibition, actives largely listed as inhibitors; 300,000 tested, 1.8% active; AID 540276, 2011; active = well fitted inhibition curve with a large enough effect; inconclusive = small, poorly fitted or top-dose-only effect, or effect the other way; inactive = flat fitted curve, though single readings scatter; tested in HEK293 cells; about a fifth of its hits are not listed in these tables; further: on the % scale 0 is the no-effect control and ±100 the full control effect; luciferase read-out
LASV entry inh: qHTS for Inhibitors of binding or entry into cells for Lassa Virus; 300,000 tested, 1.2% active; Lassa virus pseudotype entry inhibition, cell reporter; control for the full effect not named in the record; Potency, µM (series often up to 37.9 µM), inactives show at the top dose activity change, negative = inhibition, usual class: inhibitors; active means well fitted inhibition curve with a large enough effect; inconclusive means small, poorly fitted or top-dose-only effect, or effect the other way; inactive means flat fitted curve, though single readings scatter; tested in HEK293 cells; further: on the % scale 0 is the no-effect control and ±100 the full control effect; nearly all actives have a fitted effect of over 50% in size; luciferase read-out
SARS PLpro yeast: qHTS of Yeast-based Assay for SARS-CoV PLP; S. cerevisiae expressing SARS-CoV PLpro, growth rescue; control for the full effect not named in the record; Potency, µM (top dose mostly 32.9 µM), inactives show top-dose activity, positive = growth rescue; 330,000 tested, 0.19% active; AID 485353, 2010; further: 0% is about no effect; nearly all actives have a fitted effect of over 55% in size; growth read by luminescence after 48 h
Cruzain inh noDet: qHTS Assay for Promiscuous and Specific Inhibitors of Cruzain (without detergent). AID 1476, 2009. Potency, µM, for the others: max response, negative = inhibition, hits mostly inhibitors. purified cruzain, Z-FR-AMC fluorescence, no detergent. 200,000 tested, 2.3% active. Cruzipain (Trypanosoma cruzi), P25779; active means well fitted curve in the direction sought with a large enough effect; inconclusive means small, poorly fitted or top-dose-only effect, or another doubt; inactive means no such curve, though single readings can be large; an effect the other way counts as inactive or inconclusive;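 further: plate controls were enzyme without inhibitor for no effect and buffer without enzyme for full effect; nearly all actives have a fitted effect of over 40% in size; top concentration of the series not given in the record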
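Detergent-free condition (0.00005% Triton X-100) in acetate buffer pH 5.5 with DTT. 1.5 nM enzyme and compound were pre-mixed 15 min, then 2 uM Z-FR-AMC substrate added; reaction progress from fluorescence change between first and third reads (60 s).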
The depositor's hits bear a star; ? = inconclusive; / = not tested or not shown; & = joins results of further samples; [ ] = another dose, or the depositor's remark. Unless noted, the call rests on the fitted dose curve; in most records, active means well fitted rising curve with a large enough effect; inconclusive means small, poorly fitted or top-dose-only effect; inactive means no such curve, though single readings can be large or run the other way. Potency means the concentration at half of the fitted maximal effect.

SMILES	NS1 inh	2A StopGo	Cruzain inh Det	RE007 growth inh	MARV entry inh	LASV entry inh	SARS PLpro yeast	Cruzain inh noDet
COCCC(=O)N1CCCC(C(=O)c2ccc(C(F)(F)F)cc2)C1 (stereo not given)	10.3%	10.3%	/	-6.1%	-5.7%[46.1 µM]	-2.0%[46.1 µM]	-0.7%	/
CC(C)CCNC(=O)c1cccc(-n2cnc3cccnc32)c1	/	-7.7%	1.2%	/	/	-0.5%[46.1 µM]	/	-9.5%
Cc1ccc(S(=O)(=O)/C(C#N)=C/c2c(N3CCOCC3)nc3ccccn3c2=O)cc1	-2.3%	-6.5%	0.5%	0.6%	-1.8%	9.4%	-3.1%	?
CC1CCCC(NC(=O)COC(=O)COc2ccc(Cl)cc2)C1C (stereo not given)	-12.3%	-18.6%	-6.0%	10.1%	17.7%	-4.2%	1.4%	6.9%
O=C1CN(C(=O)CSc2nc(-c3ccccc3)cs2)c2ccccc2N1	-0.3%	?	-4.8%	2.7%	?	?	2.7%	?
COc1ccccc1C(=O)Nc1ccccc1C(=O)OCc1cc(=O)n2c(C)csc2n1	/	-5.6%	1.9%	/	/	10.2%[46.1 µM]	/	0.8%
CC(NC(=O)COc1ccc(Br)cc1)C(=O)O (stereo not given)	-2.6%	-24.2%	-1.1%	7.9%	17.0%	2.5%	0.1%	-13.7%
COc1cccc(OC)c1C(=O)NC(=S)Nc1ccc2oc(=O)ccc2c1	-4.1%	-12.8%	-8.5%	-3.9%	3.7%	-4.7%	7.5%	2.3%
CC(=O)NCCC(=O)Nc1nc(-c2ccc3ccccc3c2)cs1	-1.1%	3.9%	/	1.4%	27.9%[46.1 µM]	12.2%	?	/
CC1CCC(Nc2nc3c(-c4ccc(Cl)cc4)nnn3c3ccccc23)CC1 (stereo not given)	/	-11.2%	0.9%	/	-0.5%[46.1 µM]	?	/	6.2%
CN(C)c1ccncc1C(=O)Nc1ccc(F)cc1F	-0.9%	20.9%	/	-11.2%	-6.4%[46.1 µM]	12.8%[46.1 µM]	0.2%	/
Cc1ccc(S(=O)(=O)NCC(=O)OCC(=O)c2cccs2)cc1	2.8%	-5.0%	-8.7%	-17.5%	-13.8%	0.1%	-0.6%	-7.0%
N#C/C(=C\c1ccccc1F)c1nc2ccccc2c(=O)[nH]1	/	-17.8%	-1.6%	/	/	13.0%[46.1 µM]	/	-1.9%
COc1cc(Cl)c(C)cc1NC(=O)CCNC(=O)c1ccco1	1.2%	-20.4%	/	-19.2%	-4.3%[46.1 µM]	27.0%	-1.2%	/
COc1ccc2[nH]c3c(c2c1)CCN1C(=O)N([C@@H](C)C(=O)NCCc2ccc(F)cc2)C(=O)[C@]31C	-97.6%	-12.4%	/	-19.2%	/	/	-24.5%	/
FC(F)(F)c1cc(-c2ccccc2)nc(NCc2cccs2)n1	-43.0%	-17.6%	-7.2%	-24.4%	-37.1%	-16.8%	-129.0%	-10.8%
Cc1ccc(C(=O)NNC(=O)Cc2ccccc2)cc1	0.9%	0.0%	5.3%	10.3%	2.5%	?	4.0%	-2.9%
CCOC(=O)c1cnc(SCC(=O)N2CCN(c3ccccc3)CC2)nc1N	-3.7%	-12.4%	2.4%	9.5%	46.2%	-28.4%	0.1%	-18.9%
Cc1c(C#N)c(O)[nH]c(=O)c1N=Nc1ccc(Cl)c(C(=O)O)c1	4.6%	-10.0%	/	-5.8%	/	/	1.4%	/
CC(=O)C1=C(C)NC(SCC(=O)c2ccc(Cl)cc2)=C(C#N)C1c1ccco1 (stereo not given)	-55.1%	-20.7%	-8.8%	11.5%	?	-28.6%	?	-29.8%
Cc1ccc([N+](=O)[O-])c(-c2n[nH]c(=S)n2-c2cccc(Cl)c2)c1	2.8%	-8.2%	/	1.0%	17.4%	-8.2%	0.5%	/
Cc1cc2ccccc2n1CCNC(=O)c1ccccc1	15.9%	?	3.3%	-12.7%	?	7.94µM*	0.7%	-13.7%
COc1ccccc1CC(=O)NC1CC(C)(C)NC(C)(C)C1	-3.3%	-0.3%	5.2%	5.7%	12.0%	6.9%	-10.7%	-0.1%
C=CCOc1ccccc1CNc1ccc2c(c1)OCCO2	/	17.8µM*	/	-4.0%	?	11.2µM*	-4.2%	/
CC(=O)Nc1ccc(-c2csc(NC(=O)C3CSC4(C)CCC(=O)N34)n2)cc1 (stereo not given)	/	39.6%[activator]	/	18.9%	15.6%	4.3%	/	/

(further entries)
SMILES	NS1 inh	2A StopGo	Cruzain inh Det	RE007 growth inh	MARV entry inh	LASV entry inh	SARS PLpro yeast	Cruzain inh noDet
CCCN1C(=O)COc2ccc(C(=O)c3ccccc3C(=O)O)cc21	0.8%	2.4%	/	-2.8%	0.9%[46.1 µM]	3.1%[46.1 µM]	-1.2%	/
Cc1ccc(-c2cc(C(F)F)n3ncc(C(=O)Nc4c(C)nn(Cc5c(Cl)cccc5Cl)c4C)c3n2)cc1	?	-18.7%	0.0%	-1.7%	1.8%[46.1 µM]	?	1.3%	-29.6%
Cc1nn(C(=O)CN2C(=O)c3ccccc3C2=O)c(C)c1Br	-9.7%	-17.0%	5.8%	4.9%	-0.1%	6.3%	1.1%	-3.7%
CCc1ccccc1NC(=O)c1nnn(CC(=O)Nc2ccccc2C)c1N	-4.2%	5.3%	-1.5%	-1.5%	5.8%	-1.3%	-7.5%	-10.7%
COc1ccc(/C=C\c2onc(C)c2S(=O)(=O)N2CCC(C(=O)NCCC(C)C)CC2)cc1	-3.5%	-24.1%	-17.3%	-1.9%	/	/	-3.5%	-9.7%
N#Cc1ccsc1NC(=O)COC(=O)CCCSc1nc2ccccc2s1	-24.1%	-6.9%	-10.2%	-18.4%	?	-2.5%	2.0%	6.7%
CC(=O)Nc1ccc(S(=O)(=O)NC(C)CCc2ccccc2)cc1 (stereo not given)	-9.3%	-2.0%	/	10.1%	/	/	-1.7%	/
O=C(COc1ncnc2sccc12)Nc1ccc2c(c1)OCCO2	7.9%	61.0%[activator]	-1.2%	31.5%	4.5%	8.0%	-2.9%	-2.1%
Cc1csc(NC(=O)CNC(=O)OCc2ccccc2)n1	-2.8%	-10.3%	3.1%	-3.0%	-3.0%	1.2%	5.2%	0.8%
COc1ccc(N2CCN(S(=O)(=O)CCNC(=O)c3ccc(OC(C)C)cc3)CC2)cc1	/	18.7%	-0.1%	/	/	3.0%[46.1 µM]	/	-5.6%
S=C1N(c2ccccc2)C(c2ccccc2)N2CCCN12 (stereo not given)	11.2%	-10.9%	-4.1%	0.1%	-0.7%	17.8µM*	2.7%	-0.8%
CCN(CC)S(=O)(=O)c1cc(C(=O)OCC(=O)Nc2cccc(C)c2C)ccc1F	-9.8%	-23.2%	-7.1%	11.2%	?	-2.5%	9.0%	7.2%
CC(C)OC(=O)c1cc2c(ccn2C)n1CC(=O)N1CCC(Cc2ccccc2)CC1	5.4%	-8.2%	-10.6%	-0.8%	-20.8%	?	-13.5%	1.5%
COc1ccc(/C=N/N2CCN(C)CC2)cc1OC	12.5%	10.6%	-1.6%	3.3%	18.3%	13.1%	0.4%	7.5%
CC(C)C(NC(=O)c1ccccc1F)C(=O)NCc1ccccc1 (stereo not given)	19.4%	8.5%	/	-4.3%	4.9%[46.1 µM]	23.4%	-2.7%	/
O=[N+]([O-])c1ccc2c(c1)C(c1ccccc1)=NCCN2	-8.0%	-3.4%	/	-12.0%	?	-15.7%[46.1 µM]	0.4%	/
Cc1ccc(S(=O)(=O)N(C)CC(=O)O/N=C(\N)c2cccc(Br)c2)cc1	-14.3%	-6.8%	/	-11.7%	?	12.4%	13.9%	/
COc1cccc(OC)c1C(=O)Nc1cccc(-n2cnnn2)c1	7.2%	-9.1%	/	-14.1%	/	/	2.7%	/
Cc1ccc(O)c(NC(=O)c2cc(-c3cccs3)on2)c1	-3.1%	34.0%[activator]	/	12.0%	8.91µM*	-27.4%	3.1%	/
COc1cc(OC)cc(C(=O)NC2CC(C)(C)NC(C)(C)C2)c1	?	-7.8%	/	-4.6%	6.7%	10.0%	7.0%	/
COc1ccc(OC)c(NC(=O)c2ccccc2N(Cc2ccccc2)S(C)(=O)=O)c1	-8.1%	-20.9%	/	4.2%	/	/	0.3%	/
NS(=O)(=O)c1ccc(NC(=O)C2(c3ccccc3)CCCC2)cc1	-3.8%	0.0%	/	10.3%	-7.1%[46.1 µM]	-2.5%	-0.4%	/
COc1ccc(C(C(=O)NC2CCCC2)N(CCN2CCOCC2)C(=O)c2ccc(OC)c(OC)c2)cc1 (stereo not given)	5.0%	/	4.8%	-6.4%	13.4%	11.3%	10.1%	16.4%
COc1ccc(C(=O)N2c3cc4c(cc3C(C)=CC2(C)C)OCO4)cc1	-41.3%	?	3.1%	9.3%	-28.0%[46.1 µM]	?	-10.6%	-21.7%
CN1CCN(CC(=O)Nc2cc(S(=O)(=O)N3CCOCC3)ccc2Cl)CC1	/	3.8%	/	19.4%	/	16.5%	0.4%	/
CCCCc1nc(C(N)=O)c2[nH]c(=O)n(-c3ccc(OCC)cc3)c2n1	6.4%	-1.8%	/	26.0%	/	/	28.2%	/
CC1CN(c2nc3ccccn3c(=O)c2/C=C(\C#N)S(=O)(=O)c2ccccc2)CC(C)O1 (stereo not given)	-12.2%	-8.1%	-7.9%	1.2%	-1.0%&6.2%	6.6%	0.8%	?
COc1ccccc1C(=O)NCCC(=O)NCC(c1ccccc1OC)N1CCCC1 (stereo not given)	/	2.1%	/	-19.8%	0.0%[46.1 µM]	0.5%	3.8%	/
CC1(C)C(N(O)C(=O)Nc2ccc(Cl)cc2)N(c2ccc(Cl)cc2)C(=O)N1CC(=O)NN (stereo not given)	?	/	-9.1%	-10.1%	?	-7.8%	13.1%	25.9%

Screening data: PubChem BioAssay, National Center for Advancing Translational Sciences (NCATS)
